# Calb FLC = affects C. albicans growth with fluconazole | 300,000 compounds, 0.57% hits | growth inhibition, % (test concentration not listed) | C. albicans CaCi-2 (fluconazole-resistant clinical isolate) + fluconazole, Alamar Blue growth, 48 h | AID 1979;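 active means most replicates above 75%; inconclusive means exactly half above 75%; inactive means most below 75%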;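 further: all wells also contain fluconazole at 8 µg/ml as a sub-toxic cotreatment; 0% = median of DMSO wells and 100% = median of geldanamycin control wells; wells of about 8 µL received 7.5 nL stock; the first replicate is given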
# ALR H2O2 inh = human ALR oxidase inhibition via reduced H2O2 | purified ALR, DTT oxidation, H2O2 HRP-luminol luminescence | inhibition, % (no concentration beside the values) | 290,000 compounds, 3.8% hits;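 active means mean and each replicate at 75% or more; inconclusive means only one of the two met; inactive means neither met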;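 further: stock transfer was 7.5 nL into about 7.5 µL; 0% = neutral wells and 100% = wells with inactivated enzyme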
# Target sequence (P55789 whole entry, looked up): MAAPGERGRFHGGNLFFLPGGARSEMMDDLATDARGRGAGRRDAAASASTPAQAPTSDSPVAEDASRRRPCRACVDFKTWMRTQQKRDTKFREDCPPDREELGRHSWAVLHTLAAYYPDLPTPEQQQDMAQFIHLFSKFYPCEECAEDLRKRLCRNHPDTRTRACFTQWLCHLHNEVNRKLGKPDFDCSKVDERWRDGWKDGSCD
# AF4-AF9 inh = blocks AF4 peptide binding to human AF9; inhibition, % at 10 µM; 350,000 compounds, 0.47% hits; AlphaScreen, biotin-AF4 peptide binding to FLAG-AF9;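 active means every replicate reaching a set inhibition limit, whatever the replicate mean, cut at about 25% in these data; inconclusive means mean inhibition reaches that limit but some replicates miss it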;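 further: 0% = plate neutral control median and 100% = total signal loss; the record names both 10 and 1 µM as test concentration; the first replicate is given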
# Target sequence (P42568 whole entry, looked up): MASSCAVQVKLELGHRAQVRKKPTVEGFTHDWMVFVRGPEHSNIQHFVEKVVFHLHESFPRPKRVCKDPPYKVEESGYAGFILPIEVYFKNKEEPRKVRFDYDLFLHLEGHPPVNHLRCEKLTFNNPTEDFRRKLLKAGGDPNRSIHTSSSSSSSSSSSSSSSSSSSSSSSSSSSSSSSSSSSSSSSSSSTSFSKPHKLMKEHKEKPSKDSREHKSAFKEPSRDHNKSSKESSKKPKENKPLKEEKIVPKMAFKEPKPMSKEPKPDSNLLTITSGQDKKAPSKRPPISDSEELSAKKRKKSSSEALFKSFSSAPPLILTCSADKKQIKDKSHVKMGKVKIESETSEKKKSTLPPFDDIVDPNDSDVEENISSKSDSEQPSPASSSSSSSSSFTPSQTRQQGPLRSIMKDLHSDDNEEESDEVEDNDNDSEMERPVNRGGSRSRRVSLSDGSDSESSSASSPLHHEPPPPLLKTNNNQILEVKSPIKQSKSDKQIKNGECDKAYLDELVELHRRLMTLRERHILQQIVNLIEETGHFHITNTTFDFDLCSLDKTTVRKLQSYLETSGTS
# Beta cell apopt = blocks beta cell apoptosis; INS-1E cytokine-induced death, ATP luminescence, 48 h; percent of positive-control rescue, neutral wells zero; protection from apoptosis, % (test concentration not listed); 300,000 compounds, 0.8% hits;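 active means all replicates at 75% or more, or half of them and the mean; inconclusive means half reach 75% but not the mean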;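 further: 0% = cytokine-treated negative control wells and 100% = positive control rescue; higher means more ATP so stronger rescue from cytokine killing; wells of about 40 µL received 100 nL stock; the first replicate is given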
# rRNA inh HTS = selective bacterial rRNA inhibition in E. coli; E. coli WT GFP vs humanized-ribosome RFP mutants, fluorescence, 24 h; stronger effect = lower value; DMSO median 0, no signal -100; GFP signal change (wild-type ribosome), % (concentration not given with the values); 350,000 compounds, 1.6% hits; AID 720706;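 active means significant combined selectivity score with lowered wild-type GFP, culture density cut under 30%, mutant RFP and density less affected; inactive means any of these conditions unmet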; further: one replicate is shown; some compounds called inactive have numbers as strong as hits
# FGF22 binding = shifts melting point of recombinant human FGF22; 340,000 compounds, 1.5% hits; calls only at 9.99 µM; Q9HCT0; recombinant FGF22 thermal shift, SYPRO orange fluorescence; percent of sucrose octasulfate shift, DMSO zero;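 active means melting point raised past a set limit in the mean and every replicate; inconclusive means no clear call; three in four hits are not shown here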
# Target sequence (Q9HCT0 whole entry, looked up): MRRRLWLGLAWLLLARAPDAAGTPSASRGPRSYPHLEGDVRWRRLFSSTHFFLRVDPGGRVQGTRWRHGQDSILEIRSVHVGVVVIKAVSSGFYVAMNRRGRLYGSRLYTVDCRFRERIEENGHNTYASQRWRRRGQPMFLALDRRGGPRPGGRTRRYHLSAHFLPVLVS
# T cruzi inh = blocks replication of Trypanosoma cruzi; T. cruzi beta-gal in NIH3T3, luminescence, 90 h; inhibition, % (test concentration not listed); 300,000 compounds, 1.4% hits;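 active means mean inhibition across valid replicates above about 55%, limit read from the data; inconclusive means mean below that limit but half or more replicates reach it; inactive means mean below it, under half of replicates reach it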;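 further: signal also drops with host cell toxicity which is not excluded here; 0% = plate median of DMSO wells and 100% = zero luminescence signal; higher percent means less beta-gal luminescence so fewer parasites; stock transfer was 50 nL into about 50 µL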
# RanGTP-Imp inh = disruptors of Ran-importin-beta complex formation – biochemical, FRET, CFP-Ran, YFP-importin-beta, homogeneous, primary screen; inhibition, % (concentration not given with the values); 300,000 compounds, 1.1% hits; AID 2216; cell-free CFP-Ran/YFP-importin-beta FRET ratio;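 active means most replicates above 15%; inconclusive means exactly half above 15%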;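 further: 0% = DMSO wells and 100% = Ran loaded with GDP instead of GTP; wells of about 40 µL received 100 nL stock; the first replicate is given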
# rRNA inh HTS OD600 = recorded beside rRNA inh HTS, whose call it bears; OD600 change, %; measured here: OD600 growth;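 optical density of the mix in the first replicate; 0 = DMSO median and -100 = no signal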
# rRNA inh HTS RFP = second read-out of rRNA inh HTS, no call of its own (marks repeat the call); RFP signal change, %; measured here: RFP humanized mutant strains;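 first replicate; 0 = DMSO median and -100 = no signal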
# An asterisk follows results filed as active; i = inactive; ? = inconclusive; / = not tested or not shown. This is a subset (hit frequency here may not be typical).
SMILES,Calb FLC,ALR H2O2 inh,AF4-AF9 inh,Beta cell apopt,rRNA inh HTS,rRNA inh HTS OD600,rRNA inh HTS RFP,FGF22 binding,T cruzi inh,RanGTP-Imp inh
CC(C)(C)NC(=O)CN(Cc1ccc2c(c1)OCO2)C(=O)CNC(=O)c1cccs1,-4,-1,/,-5,/,/,/,/,-4,2.7
COc1ccc(NC(=O)CSc2nc3ccsc3c(=O)n2Cc2ccccn2)c(OC)c1,-7,96*,1.6,-10,-8,-6,1.4,i,19,2.3
Cc1cccc(-c2c3c(=O)n(C)c(=O)n(C)c3cn2C2CCCCC2)c1,-5,19,/,-4,/,/,/,/,12,-2.6
O=C1CCCN1CCC(=O)N1CCCC(CO)(Cc2ccccc2)C1 (stereo not given),9,-17,-5.0,-4,5,10,1.1,i,4,?
CC(C(=O)NCCCN1CCOCC1)n1cccc1C(=O)c1ccccc1 (stereo not given),3,-5,/,0,/,/,/,/,-6,-0.7
NNC(=S)NCCc1ccccc1,-7,1,-2.6,-11,-6,11,0.1,i,-10,-1.5
O=S(=O)(c1cccs1)N1CN(Cc2ccccc2)c2nc3ccccc3nc21,5,9,/,0,/,/,/,/,34,-0.1
CCN(CC)c1ncnc2c1cnn2C,21,5,/,-6,/,/,/,/,0,?
O=C(Nc1nccs1)c1ccc(COc2ccccc2)o1,-4,/,-3.0,-1,13,8,1.7,i,-17,1.7
CCOc1cc(C(=O)N2CCC(CC3CC(c4ccccc4)=NO3)(C(=O)NCc3ccc(OC)cc3)CC2)cc(OCC)c1OCC (stereo not given),34,-3,/,4,5,9,3.3,i,39,4.4
CC(=O)c1cc(-c2ccccc2)[nH]c1N1CCOCC1,-2,5,1.3,-3,27,3,2.9,i,-15,-7.0
Oc1ccc2ccccc2c1CN1CCCC1,15,8,-0.5,-4,0,10,-0.1,i,-7,3.3
Nc1nc(SCC(=O)Nc2cc(C(F)(F)F)ccc2Cl)[nH]c(=O)c1NC(=O)c1ccco1,2,0,-2.2,0,5,10,-1.9,i,-5,-2.1
CCCOc1ccc(/C(O)=C2/C(=O)C(=O)N(CCCOC)C2c2cccnc2)cc1 (stereo not given),-17,2,/,5,/,/,/,/,5,1.0
COc1ccc(C(=O)Nc2cccnc2)cc1,9,-21,/,-3,/,/,/,/,-3,-3.9

# Sorted by value in AF4-AF9 inh (rising): some entries from above.
SMILES,AF4-AF9 inh
O=C1CCCN1CCC(=O)N1CCCC(CO)(Cc2ccccc2)C1 (stereo not given),-5.0
O=C(Nc1nccs1)c1ccc(COc2ccccc2)o1,-3.0
COc1ccc(NC(=O)CSc2nc3ccsc3c(=O)n2Cc2ccccn2)c(OC)c1,1.6

# Following part
SMILES,Calb FLC,ALR H2O2 inh,AF4-AF9 inh,Beta cell apopt,rRNA inh HTS,rRNA inh HTS OD600,rRNA inh HTS RFP,FGF22 binding,T cruzi inh,RanGTP-Imp inh
COc1ccc(C2C(C#N)=C(N)Oc3cccc(O)c32)cc1 (stereo not given),4,16,4.7,-8,-21,-33,-2.4,i,-2,51*
Cc1ccc(NC(=S)Nc2cccc3cnccc23)cc1C,19,-15,3.2,2,-41,-70,-3.0,i,18,2.0
Cc1sc2nc(CN3CCOCC3)[nH]c(=O)c2c1-c1ccccc1,15,-6,/,/,/,/,/,/,0,5.9
CC(=O)N1CCC(Nc2ccc(C)cc2)CC1,-1,98*,-8.6,-2,-1,-2,-0.3,i,-7,5.6
O=C(COC(=O)c1cccc(OC(F)F)c1)NCC1CCCO1 (stereo not given),/,-4,-1.3,-5,5,10,-2.6,i,/,/
COc1ccc2c(c1)CCc1c(C(=O)N3CCCCCC3)noc1-2,-22,-23,/,0,/,/,/,/,5,0.1
CCc1nnc(NC(=O)c2ccc(S(=O)(=O)N3CCc4ccccc4C3)cc2)s1,-3,-10,-5.4,-3,20,6,2.4,i,12,1.5
CCOC(=O)Cn1cc(/C=N/NC(=O)CC#N)c2ccccc21,4,-11,-0.2,-4,/,/,/,i,-3,3.1
COc1ccc(NS(=O)(=O)c2ccc(OC)c(NC(=O)CNC(=O)c3ccc(OC)cc3)c2)cc1,/,1,-1.2,-2,4,11,1.3,i,/,/
Cc1ccc(C(=O)N/N=C/c2ccc(N3CCOCC3)cc2)c(C)c1,-14,-4,0.7,3,6,3,-1.9,i,-3,0.1
O=C(CSc1cccc[n+]1[O-])Nc1ccc(Cl)cc1F,/,-5,-3.1,0,-1,-1,-2.1,i,/,/
O=C(Cn1cc([N+](=O)[O-])ccc1=O)N1CCc2ccccc2C1,/,4,0.1,-2,7,9,4.5,i,/,/
Cc1cc(-c2ccco2)n(CC(=O)NCc2ccccc2)n1,0,-3,-2.8,-3,1,2,-0.6,i,-17,-0.5
CCN(CC)C(=O)c1[nH]cnc1C(=O)N[C@@H](C)c1ccccc1,/,-4,-7.6,-2,17,4,15,i,/,/
COc1ccc(N2CCN(C(=O)COC(=O)CCOc3ccccc3C)CC2)cc1,/,43,-9.2,0,0,1,0.6,i,-1,8.4

# Structural class: the compounds so far containing two or more sulfur atoms (3)
SMILES,Calb FLC,ALR H2O2 inh,AF4-AF9 inh,Beta cell apopt,rRNA inh HTS,rRNA inh HTS OD600,rRNA inh HTS RFP,FGF22 binding,T cruzi inh,RanGTP-Imp inh
COc1ccc(NC(=O)CSc2nc3ccsc3c(=O)n2Cc2ccccn2)c(OC)c1,-7,96*,1.6,-10,-8,-6,1.4,i,19,2.3
O=S(=O)(c1cccs1)N1CN(Cc2ccccc2)c2nc3ccccc3nc21,5,9,/,0,/,/,/,/,34,-0.1
CCc1nnc(NC(=O)c2ccc(S(=O)(=O)N3CCc4ccccc4C3)cc2)s1,-3,-10,-5.4,-3,20,6,2.4,i,12,1.5

# (continued)
SMILES,Calb FLC,ALR H2O2 inh,AF4-AF9 inh,Beta cell apopt,rRNA inh HTS,rRNA inh HTS OD600,rRNA inh HTS RFP,FGF22 binding,T cruzi inh,RanGTP-Imp inh
Nc1cc(=O)[nH]c(SCCOc2ccccc2)n1,30,-3,-1.8,-5,-1,0,-0.7,/,-12,4.1
CCC1(C)Cc2c(c(=O)n(-c3ccccc3)c3ncnc(N)c23)CO1 (stereo not given),-4,-7,/,-5,/,/,/,/,4,-2.0
O=C(Nc1cccc([N+](=O)[O-])c1)c1ccc2c(c1)OCCO2,-3,48,/,4,/,/,/,/,-18,3.5
O=C(Nc1ccccc1)Nc1ccc(O)c2ccccc12,9,87*,/,11,/,/,/,/,9,13
CCOc1cccc(-c2cc(C(=O)N/N=C/c3ccc(OC)c(CN4CCOCC4)c3)c3ccccc3n2)c1,24,-24,/,-1,/,/,/,/,0,2.4
Cc1ccc(-n2ncc3c2CCCC3NC(=O)c2ccccc2N2CCOCC2)cc1C (stereo not given),-1,5,1.6,5,-43,-57,-6.6,i,26,4.0
CCOc1ccc(NC(=O)c2nn(C)cc2Br)cc1,23,-2,/,6,/,/,/,/,-12,-2.5
Cc1cc(NC(=O)c2cc3n(n2)C(C(F)(F)F)CC(c2ccco2)N3)no1 (stereo not given),-4,3,-2.0,3,-3,3,1.9,i,-6,0.5
Oc1ccc(C(c2nnnn2C2CCCC2)N2CCc3ccccc3C2)cc1 (stereo not given),26,/,/,0,/,/,/,/,-1,2.5
CC(C)(C)NC(=O)C(c1cccs1)N(Cc1cccs1)C(=O)c1csnn1 (stereo not given),22,0,0.0,4,-6,2,-1.6,i,9,2.0
Cn1c(=O)[nH]c(=O)c2c1nc(NCCc1ccccc1)n2CC(O)COc1ccccc1 (stereo not given),0,-3,/,3,/,/,/,/,13,-2.1
CC(CN1C(C)CCCC1C)OC(=O)c1ccccc1Br (stereo not given),-12,-5,0.9,-4,-3,3,-1.8,i,29,-5.1
COc1ccc(CC(=O)NC2CC(C)(C)NC(C)(C)C2)cc1OC,-8,-3,1.7,/,4,8,0.1,i,-6,-1.4
CCOC(=O)c1c(C2CC2)csc1NC(=O)CSCc1c(C)noc1C,-7,/,/,2,/,/,/,/,28,?
COc1ccc([N+](=O)[O-])cc1NC(=O)C(C)N(C)Cc1ccc(Br)cc1 (stereo not given),3,/,1.8,3,5,5,-4.7,i,34,-0.7

# In a second layout: 3 of the compounds above
# Each structure is followed by: Calb FLC, ALR H2O2 inh, AF4-AF9 inh, Beta cell apopt, rRNA inh HTS, rRNA inh HTS OD600, rRNA inh HTS RFP, FGF22 binding, T cruzi inh, RanGTP-Imp inh
Cc1ccc(C(=O)N/N=C/c2ccc(N3CCOCC3)cc2)c(C)c1
→ -14, -4, 0.7, 3, 6, 3, -1.9, i, -3, 0.1
O=C(CSc1cccc[n+]1[O-])Nc1ccc(Cl)cc1F
→ /, -5, -3.1, 0, -1, -1, -2.1, i, /, /
O=C(Cn1cc([N+](=O)[O-])ccc1=O)N1CCc2ccccc2C1
→ /, 4, 0.1, -2, 7, 9, 4.5, i, /, /

# Going on with the list.
SMILES,Calb FLC,ALR H2O2 inh,AF4-AF9 inh,Beta cell apopt,rRNA inh HTS,rRNA inh HTS OD600,rRNA inh HTS RFP,FGF22 binding,T cruzi inh,RanGTP-Imp inh
COc1ccc2c(c1)[nH]c1c(=O)n(CC3CCCO3)cnc12 (stereo not given),8,-10,/,-6,/,/,/,/,-1,2.5
Cc1cccc(N2CCN(C(=O)CSc3nnnn3C3CC3)CC2)c1C,/,-5,-0.9,-2,-29,-40,-11,i,/,/
CCOc1cccc(/C=N/N=C/c2cccc(OCC)c2O)c1O,5,/,-3.9,/,10,14,-0.3,i,-2,0.3
Cc1nc(-c2ccc(S(=O)(=O)N3CCN(CCc4ccccc4)CC3)s2)cs1,-7,-2,-2.0,-12,-2,3,6.9,i,16,-2.0
CCC(C)C(NC(=O)C1CCC(C)CC1)C(=O)Nc1ccc(OC)cc1 (stereo not given),-12,-2,3.2,-5,18,14,4.5,i,-1,5.6
O=C(CCc1nc(-c2cccs2)no1)Nc1cnc2ccccc2c1,1,29,/,-17,/,/,/,/,-4,-0.4
COc1ccc(Nc2nc(N3CCCC3)nc(N3CCOCC3)n2)cc1,-1,59,-0.1,2,-4,5,4.3,i,17,1.1
CCOc1ccc(NS(=O)(=O)c2cc(C(=O)N3CCC3)ccc2Cl)cc1,/,2,-1.6,0,1,-1,4.3,i,7,-2.7
O=C1[C@H]2[C@@H](c3ccc(F)cc3)N3C(=O)N(c4ccc(Br)cc4)C(=O)[C@@]3(Cc3ccccc3)[C@H]2C(=O)N1C1CCCCC1,5,0,-0.3,13,5,9,-3.1,i,20,0.9

# Compound activity: PubChem BioAssay, Broad Institute
